Screening data: PubChem, National Center for Advancing Translational Sciences (NCATS)
Menin-MLL FL inh = qHTS Assay for Inhibitors Targeting the Menin-MLL Interaction in MLL Related Leukemias: Competition With Fluorescein Labeled MLL-derived Peptide | FP activity change, % at 61.4 µM | 290,000 tested, under 10 active | Fluorescence polarization, fluorescein-MLL peptide displacement from menin; inconclusive = falling polarisation curve, or a change in total fluorescence; inactive = total fluorescence flat and polarisation flat or rising; no compound was filed as active; the % refers to the polarisation; negative = inhibition;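 note: % of control where 0% means no effect; inhibitors lower the polarisation; unlabelled MLL peptide was the positive control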
CtBP-E1A inh = qHTS Assay for Inhibitors of the CtBP/E1A Interaction | AlphaScreen GST-E1A/His-CtBP binding, 1536-well; stronger effect = lower value; control for the full effect not named in the record | activity change, % (test concentration not listed) | CtBP / adenovirus E1A interaction (AlphaScreen) | 340,000 tested, 0.49% active; in the data active means activity change below about -65%; inconclusive means about -30% to -65%; inactive means above about -30%; note: % is set by controls: 0 for no effect and ±100 for the full control effect; compound concentration not given in the record
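Steps: dispense buffer (Tris pH 8.0, NaCl 300 mM, TCEP 1 mM, BSA, Tween 20); add 5X protein mix (GST-E1A, His-CtBP, 125 nM each); pin 23 nL compound; 2 h at 37 °C, dark; add 5X beads (50 ug/mL); 1 h; read.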
TRPV1 PAM = HTS Assay for Compounds that Act as Potentiators of the Vanilloid Receptor 1. TRPV1-expressing cells, Fluo-8 calcium influx, capsaicin EC20 potentiation; host cell line not named in the record; control for the full effect not named in the record. potentiation, % at 8.33 µM. 320,000 tested, 0.02% active. AID 540277, 2011; active means potentiation above 80%; inconclusive means 30% to 80%; inactive means below 30%; note: 0% is about no effect
Target sequence (Q8NER1 whole entry, looked up): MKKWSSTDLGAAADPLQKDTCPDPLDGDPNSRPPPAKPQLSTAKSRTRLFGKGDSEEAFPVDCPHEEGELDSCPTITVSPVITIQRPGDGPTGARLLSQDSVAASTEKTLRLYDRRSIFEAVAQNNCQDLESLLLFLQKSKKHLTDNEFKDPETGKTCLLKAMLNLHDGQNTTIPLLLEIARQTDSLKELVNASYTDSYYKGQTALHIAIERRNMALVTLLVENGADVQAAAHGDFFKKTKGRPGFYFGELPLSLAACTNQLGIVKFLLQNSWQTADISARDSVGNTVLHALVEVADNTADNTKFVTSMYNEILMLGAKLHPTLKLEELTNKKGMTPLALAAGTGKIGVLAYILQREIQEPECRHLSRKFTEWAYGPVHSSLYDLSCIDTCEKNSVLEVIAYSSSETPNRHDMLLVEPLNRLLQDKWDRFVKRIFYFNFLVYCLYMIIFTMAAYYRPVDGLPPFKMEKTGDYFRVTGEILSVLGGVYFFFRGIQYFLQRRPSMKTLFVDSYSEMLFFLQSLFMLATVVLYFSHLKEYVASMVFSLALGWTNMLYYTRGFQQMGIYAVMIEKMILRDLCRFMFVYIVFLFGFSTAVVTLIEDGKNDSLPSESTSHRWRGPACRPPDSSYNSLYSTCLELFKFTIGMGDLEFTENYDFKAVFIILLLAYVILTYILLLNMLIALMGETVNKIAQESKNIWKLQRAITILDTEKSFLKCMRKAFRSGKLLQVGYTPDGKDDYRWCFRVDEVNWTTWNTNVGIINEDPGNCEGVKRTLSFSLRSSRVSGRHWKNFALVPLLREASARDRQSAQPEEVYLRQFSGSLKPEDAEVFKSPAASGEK
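Fluo-8 calcium influx in TRPV1-expressing cells, kinetic read (ex 480/em 520 nm). Compound added and read 3 min for agonist activity, followed by capsaicin at EC20 final and 2 min further read for enhancement.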
gsp antagonist = qHTS for Antagonists of gsp, the Etiologic Mutation Responsible for Fibrous Dysplasia/McCune-Albright Syndrome: qHTS; 340,000 tested, 0.4% active; gsp-mutant cells, cAMP HTRF, 30 min; control for the full effect not named in the record; Potency, µM (top dose mostly 76.9 µM), for the others: at the top dose activity change, negative = inhibition, most hits filed as inhibitors; AID 624288, 2012; active = falling curve of any shape with a large fitted effect; inconclusive = falling curve, mostly with a smaller effect; inactive = flat or rising curve; cell line not stated here;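 note: intracellular cAMP measured with PDE inhibitor Ro 20-1724 present during compound exposure; potency is the fitted concentration of half-maximal effect; % is set by controls: 0 for no effect and ±100 for the full control effect; nearly all actives have a fitted effect of over 65% in size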
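Cells in G418 medium, seeded 16-24 h, 37C; buffer exchange to DPBS + 1 mM CaCl2, 0.5 mM MgCl2, 0.05% BSA; cpds in DMSO + […] (300 uM stock), 30 min 37C; HTRF cAMP detection.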
Sfp PPTase inh = qHTS Assay for Inhibitors of Bacillus subtilis Sfp phosphopantetheinyl transferase (PPTase) | AID 1490, 2009 | Biochemical Sfp PPTase activity, qHTS | Potency, µM, for inactives: max response, negative = inhibition, most hits filed as inhibitors | 4'-phosphopantetheinyl transferase ffp (Bacillus subtilis), Q9F4F7 | 310,000 tested, 3.5% active; active = well fitted inhibition curve with a large enough effect; inconclusive = small, poorly fitted or top-dose-only effect, or another doubt; inactive = no such curve, though single readings can be large or run the other way;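 note: the enzyme is Sfp with the accession as filed and its product quenches rhodamine fluorescence; potency is the fitted concentration of half-maximal effect; 0% = enzyme reaction without inhibitor and -100% = no enzyme wells; top concentration of the series not given in the record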
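Step 1, compound plus 15 nM Sfp-PPTase, 15 min, room temperature. Step 2, add rhodamine-CoA (5 uM) and BHQ-2-YbbR (12.5 uM). Step 3, read 525/598 nm fluorescence at 0 and 30 min.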
gsp agonist = qHTS for Agonist of gsp, the Etiologic Mutation Responsible for Fibrous Dysplasia/McCune-Albright Syndrome: qHTS; gsp mutant cells, cAMP HTRF, 30 min; control for the full effect not named in the record; Potency, µM (top dose mostly 76.9 µM), for inactives: top-dose activation (cAMP increase), hits mostly activators; 340,000 tested, 0.13% active; active = well fitted activation curve with a large enough effect; inconclusive = small, poorly fitted or top-dose-only effect, or another doubt; inactive = no such curve, though single readings can be large or run the other way; cell line not stated here;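 note: phosphodiesterase inhibitor Ro 20-1724 added with compounds to block cAMP breakdown; potency is the fitted concentration of half-maximal effect; nearly all actives have a fitted effect of over 60% in size; about a fifth of the inactives were tested at one dose only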
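Cells stably selected in G418 were plated at 2000/well, grown 16-24 hr, then given compounds in DMSO with the PDE inhibitor […] (300 uM solution added) for 30 min at 37C; cAMP was read by HTRF.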
ClpP mod = qHTS Assay for Activators of ClpP | ATP-dependent Clp protease proteolytic subunit (Bacillus subtilis (strain 168)), P80244 | purified B. subtilis ClpP, FRET peptide cleavage, 20 min | Potency, µM (titrated, usually from 57.5 µM), for the others: top-dose activity change, negative = active | 340,000 tested, 1.9% active | AID 651965, 2013; active = well fitted falling curve with a large enough effect; inconclusive = small, poorly fitted or top-dose-only effect; inactive = no such curve, though single readings can be large or run the other way; note: potency is the fitted concentration of half-maximal effect; the source files actives as falling curves though it sought activators and does not explain the sign; nearly all actives have a fitted effect of over 65% in size; many hits overshoot -100%
Target sequence (P80244 whole entry, looked up): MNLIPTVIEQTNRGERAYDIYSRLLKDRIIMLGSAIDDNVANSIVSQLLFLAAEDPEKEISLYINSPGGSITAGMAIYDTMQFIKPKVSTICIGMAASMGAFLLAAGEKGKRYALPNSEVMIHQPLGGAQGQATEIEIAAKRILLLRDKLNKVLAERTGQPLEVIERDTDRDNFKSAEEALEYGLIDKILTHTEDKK
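ClpP 10 microg/mL final, pH 8 Tris/KCl buffer with BSA, glycerol, Tween-20; compound pinned in; FRET-FV substrate; RT 20 min; Ex320/Em430; ΔFRET vs ADEP 5.8 microM, DMSO, no enzyme.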
Active calls of the source: *; u = inconclusive; x = no result given; & = joins results of further samples; [ ] = another dose, or the depositor's remark. An unsorted share of the library; about 5.3% have a hit in one of these screens.

Structure,Menin-MLL FL inh,CtBP-E1A inh,TRPV1 PAM,gsp antagonist,Sfp PPTase inh,gsp agonist,ClpP mod
COc1ccc(CNC(=O)COC(=O)C2=COCCO2)cc1,-0.4,0,20,3%,11%,0%,0.1%
COc1ccc(C2=NN(c3nc(-c4ccccc4)c(CC(=O)O)s3)C(c3ccco3)C2)cc1 (configuration not stated),u,0,8,-31%,14µM*,8%,u
COc1ccc(C(=O)c2ccc(CC#N)s2)cc1,14,-1,-6,-6%,0%,-44%[inhibitor],-0.6%
O=C(CN1CCCCC1)Nc1cccc2c1OCO2,1.6,-2,4,-2%,-5%,u,-1.0%
CC(C)=CCN1CCN(Cc2cc(F)ccc2-n2nc(C)cc2C)CC1CCO (configuration not stated),-2.0,x,10,-6%,7%,6%,-1.4%
CCN1CCCC1CNC(=S)Nc1ccc(C(C)=O)cc1 (configuration not stated),-0.3,x,3,1%,4%,41%,-0.5%
Cc1cccn2c(=O)c3cc(C(=O)NCC4CCCO4)c(=N)n(CCN4CCOCC4)c3nc12 (configuration not stated),1.8,-1,-6,14%,16%,39%[15.4 µM],0.3%
Cc1ccc(-c2noc(CCC(=O)NCc3ccc4c(c3)OCO4)n2)cc1,0.8,-1,-9,-11%[15.4 µM],15%,-1%,-0.5%
O=[N+]([O-])c1ccc(S(=O)(=O)N/N=C/c2ccc3c(c2)OCO3)cc1,-5.7,-6,12,0%,0%,u,-1.6%
CC(C)N(C1=N/C(=C\c2ccco2)C(=O)N1c1ccccc1)C(C)C,u,4,2,-3%,-9%,-2%,-20%
Cc1ccc(NC(=O)C2CCN(S(=O)(=O)c3c(C)n[nH]c3C)CC2)c(C)c1,1.1,x,17,9%,6%,u,2.1%
CCOC(=O)N1CCN(C(=O)c2ccc3c(=O)n(CC4CCCO4)c(=S)[nH]c3c2)CC1 (configuration not stated),-1.8,2,3,-20%,-1%,-6%,1.9%
O=C(c1cc2ccccc2o1)N1CCN(S(=O)(=O)/C=C/c2ccccc2)CC1,3.0,8,3,u,-5%,0%[15.4 µM],-6.2%
CCn1c(CNC(=O)c2ccco2)nnc1SCC(=O)Nc1ccc(Br)cc1F,-0.8,3,5,7%,15%,1%,-2.0%
Nc1nonc1C(=O)NCCNc1ncccc1[N+](=O)[O-],-0.5,1,-4,12%,6%,6%[15.4 µM],x
CCOC(=O)c1ccc(Oc2nc(NC)nc(OC)n2)cc1,4.2,-9,x,-9%,4%,-6%,-2.5%
COc1cccc(/C=N/NC(=O)CSc2nnc(C)n2-c2ccccc2)c1OC,-0.6,7,30,0%,-4%,15%,28µM*
CN(C(=O)CCN1C(=O)C2C3C=CC(C3)C2C1=O)c1ccccc1 (configuration not stated),3.3,9,-4,10%,31%[activator],u,-1.3%
O=Nc1ccc(O)c2ncccc12,-7.1&2.1,x,x,-15%,u,13%,0.0%
COC(=O)C1=C(CCc2ccccc2)NC(=O)NC1c1ccc(Cl)cc1 (configuration not stated),x,-18,x,-1%,x,x,-4.6%
Cc1ccc(NS(=O)(=O)c2cccs2)nc1,3.3,-5,3,2%,9%,12%,3.6%
Cc1ccc(S(=O)(=O)Nc2ccc(O)c(Sc3ncn[nH]3)c2)cc1,0.4,0,-2,-1%,9%,2%,x
COC(=O)c1cccc(NC(=O)CSc2nc(C)cc(=O)[nH]2)c1,1.6,-1,-1,-12%,-4%,-3%,-1.0%
COc1cc(CCC(=O)OCC(=O)NC(=O)c2ccc(Cl)cc2)cc(OC)c1OC,7.2,7,-13,1%,1%,-36%[inhibitor],x
CC(C)c1ccc2c(c1)[C@H]1OCC[C@H]1[C@@H](c1cccs1)N2,1.8,-1,28,-25%,-11%,-26%,0.2%
CCCC1C(C#N)=C(N)Oc2cc(C)n(C)c(=O)c21 (configuration not stated),1.9,-4,-4,4%,-7%,17%,32µM*
Cc1ccccc1N1C(=O)c2ccccc2NC1c1ccncc1 (configuration not stated),4.0,3,-2,1%,11%,5%,-23%
O=C(c1ccco1)N(Cc1cccc([N+](=O)[O-])c1)c1ccc(Br)cc1,0.0,-2,-8,-23%,u,1%,x
O=C(Nc1ccc(S(=O)(=O)NCc2ccccc2)cc1)c1ccccc1[N+](=O)[O-],x,-2,8,-11%,-17%,-3%,-8.5%
O=C(CSc1nccc(=O)[nH]1)NC1CCCCCC1,x,0,x,-19%,x,-85%[inhibitor],-3.1%
COc1ccccc1-n1cnc2c(c1=O)c1nc3ccccc3nc1n2CCc1ccccc1,0.0,0,3,8%,-8%,-11%,-3.7%
Cc1cc(S(=O)(=O)n2cnc3cc([N+](=O)[O-])ccc32)ccc1Cl,4.5,-3,6,16%,-7%,u,-0.7%
Cc1cc(NC(=O)CCC(=O)N(CC(=O)NCC2CCCO2)c2ccc3c(c2)OCCO3)no1 (configuration not stated),3.4,-1,2,3%,29%,2%,-2.8%
COc1cc2c(cc1NC(=O)C(C)Sc1ccc(NC(C)=O)cc1)oc1ccccc12 (configuration not stated),5.4,-19,2,20µM*,15%,u,u
CCOC(=O)c1c(NC(=O)CN2CCCCC2)sc(C)c1C,-2.9,11,2,3%,11%,2%,-18%
CCOC(=O)n1c(=O)n(C)c2ccc(Cl)cc21,-3.8,15,-9,8%,0%,8%[15.4 µM],x
COc1cccc(-c2cc(C(=O)Nc3cc(OC)c(OC)c(OC)c3)no2)c1,0.6,4,1,13%,3%,-27%,-3.2%
N=C1C(c2nc(-c3cccc([N+](=O)[O-])c3)cs2)=C(O)CN1NC(=O)c1ccco1,-0.9,-10,-4,-13%,23%,-7%[15.4 µM],x
CCOC(=O)N1CCN(S(=O)(=O)c2cccc3ccc(C)nc23)CC1,-0.4,-3,19,-6%,15%,9%,0.2%
O=S(=O)(NCC(c1cccnc1)N1CCN(Cc2ccccc2)CC1)c1cc(F)ccc1F (configuration not stated),x,4,0,1%,16%,21%,0.6%
Cc1ccc(S(=O)(=O)N(C)C)cc1NC(=O)c1cccs1,-1.7,x,3,11%,7%,1%,-0.5%
CN(C)S(=O)(=O)c1cccc(NC(=O)CCCC2CCCCC2)c1,x,8,x,9%,x,-5%,1.6%
O=C(CCl)NCc1c(Cl)cccc1-n1cccc1,4.2,1,2,3%,-10%,4%,1.2%
CC(c1ccccc1)N(NC(=O)C(O)(c1ccccc1)c1ccccc1)C(=O)c1ccccc1 (configuration not stated),3.6,9,-3,-5%,7%,-3%[15.4 µM],-30%
COc1ccc(C2N(c3ccc(OC)cc3)C(=O)C3CCCN32)cc1 (configuration not stated),2.4,6,-1,5%,-11%,-12%,2.2%
COc1ccc(OC)c(C2=Nn3c(nnc3C3CCCCC3)SC2)c1,0.8,-11,14,-19%,-6%,-23%,-7.4%
O=C(O)c1cccc2c1C(=O)c1ccc(-c3ccc(OC(F)(F)F)cc3)cc1S2(=O)=O,x,-10,x,6%,x,18%,-0.4%
OCCCNc1ncnc2c1[nH]c1ccccc12,0.7,-2,18,-6%,4%,8%[15.4 µM],x
CCCn1nc2cc(C(=O)NC3CCCc4ccccc43)ccc2c1OCC (configuration not stated),5.1,x,13,4%,14%,-34%[inhibitor],3.7%
CC1CCC2C(C1)OS(=O)(=O)NC2(C)C (configuration not stated),-4.2,x,13,x,18%,x,x

Going on with the list:
Structure,Menin-MLL FL inh,CtBP-E1A inh,TRPV1 PAM,gsp antagonist,Sfp PPTase inh,gsp agonist,ClpP mod
O=C(/C=C/c1ccc(Cl)cc1Cl)NC(=S)Nc1ccccn1,4.9,-14,5,-2%,-2%,u,2.2%
CN(C)c1cccc(C(=O)Nc2cc(C(F)(F)F)ccc2-n2cnc3ccccc32)c1,4.6,-2,-3,3%,18%,16%,0.8%
Cc1nc(SCC(=O)NCCc2ccc(Cl)cc2)nc(C)c1C,-0.2,7,-13,-1%,11%,-3%,-0.8%
CC(=O)Nc1ccc(NC(=O)C(C)Sc2nnc(C3CC3)n2-c2ccccc2)cc1 (configuration not stated),x,2,5,3%,x,-6%,0.5%
CCOc1ccc(C(=O)Nc2nnc(SCC(=O)NCC3CCCO3)s2)cc1OCC (configuration not stated),x,12,14,15%,0%,14%,-1.2%
Cc1nn(-c2ccccc2)c2sc(-c3n[nH]c(=S)o3)cc12,3.6,u,20,-7%,-25%,8%,u

Five structures already listed, ordered by number of heavy atoms, lowest first:
Structure,Menin-MLL FL inh,CtBP-E1A inh,TRPV1 PAM,gsp antagonist,Sfp PPTase inh,gsp agonist,ClpP mod
Cc1nn(-c2ccccc2)c2sc(-c3n[nH]c(=S)o3)cc12,3.6,u,20,-7%,-25%,8%,u
O=C(/C=C/c1ccc(Cl)cc1Cl)NC(=S)Nc1ccccn1,4.9,-14,5,-2%,-2%,u,2.2%
Cc1nc(SCC(=O)NCCc2ccc(Cl)cc2)nc(C)c1C,-0.2,7,-13,-1%,11%,-3%,-0.8%
CCCn1nc2cc(C(=O)NC3CCCc4ccccc43)ccc2c1OCC (configuration not stated),5.1,x,13,4%,14%,-34%[inhibitor],3.7%
CN(C)c1cccc(C(=O)Nc2cc(C(F)(F)F)ccc2-n2cnc3ccccc32)c1,4.6,-2,-3,3%,18%,16%,0.8%
